# miR-21 reporter – raises the signal of a miR-21 reporter; HeLa miR-21 FLuc reporter, luciferase, 48 h; Potency, µM (top dose mostly 38.3 µM), inactives show top-dose reporter change, positive = more light; 340,000 tested, under 10 active; active = well fitted rising curve with a large enough effect; inconclusive = small, poorly fitted or top-dose-only effect; inactive = no such curve, though single readings can be large or run the other way;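 also: % of control where 0% means no effect; miR-21 action dims this reporter so a rising signal means less miR-21 action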
#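 Compounds were titrated across several concentrations (up to approximately 40 uM) and incubated 48 hours with HeLa miR-21-FLuc reporter cells (miR-21 target sequence downstream of FLuc, endogenous miR-21). Readout was firefly luciferase luminescence after lytic detection reagent.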
# * = called active by the depositor; ? = inconclusive. The list is partial; count on the stated rates, not on these rows.
miR-21 reporter,smiles
-30.5%,CCOc1ccc(C(=O)Nc2nnc(S(=O)(=O)N(CC)c3ccccc3C)s2)cc1
4.9%,Cc1cccc(-n2c(CNC(=O)c3cccc(F)c3)nnc2SCC(=O)Nc2ccccc2F)c1
2.2%,CN1C(=O)Cc2cc(S(=O)(=O)CCC(=O)Nc3ccc(F)c(Cl)c3)ccc21
19.1%,CC(C)(C)OC(=O)N1CCC(c2c(C(=O)N3CCN(Cc4ccccc4)CC3)cnn2-c2cccc(Cl)c2)CC1
-0.6%,COc1cc(OC)c(Nc2nc3ccccc3c3nncn23)cc1Cl
-0.7%,CCOc1ccc(CCNC(=O)CCn2c(=O)c3cccn3c3ccc(F)cc32)cc1OCC
15.8%,CC(C)N(C(=O)CSc1cn(CC(=O)N2CCCCCC2)c2ccccc12)C(C)C
0.6%,CCOC(=O)c1c(-c2ccc(C)cc2)csc1NC(=O)c1nc(SC(C)C)ncc1Cl
-1.4%,CCc1ccc(N2C(=O)CS(=O)(=O)C23C(=O)N(Cc2ccccc2)c2ccccc23)cc1 (stereo unspecified)
-1.5%,CCCN(CCC)CCCNC(=O)c1cc2c(=O)oc3ccc(C)cc3c2s1
-0.2%,COc1cc(C2C(C(=O)c3ccco3)=C(O)C(=O)N2c2cc(C)on2)ccc1OCc1ccccc1 (stereo unspecified)
-0.1%,Cc1ccccc1NC(=O)c1sc2nc(-c3cc4ccccc4oc3=O)[nH]c(=O)c2c1C
-0.4%,Cc1ccc(-n2nc3c(N4CCC(C(=O)NCc5ccccc5Cl)CC4)nnc(C)c3c2C)cc1
7.2%,Oc1c(C(c2ccccc2Cl)N2CCN(Cc3ccccc3)CC2)sc2nc(-c3ccco3)nn12 (stereo unspecified)
4.6%,Cc1ccc(CNC(=O)C(=O)Nc2c3c(nn2-c2ccccc2)CSC3)cc1
-2.4%,Fc1ccc(-n2ncc3c(N4CCN(Cc5ccccc5)CC4)ncnc32)cc1
?,COc1ccc(CCNC(=O)c2nc(SCc3ccccc3F)ncc2Cl)cc1OC
1.2%,O=C1Nc2c(c(=O)[nH]c(=O)n2-c2ccc(F)cc2)C1(NS(=O)(=O)c1ccc(Cl)cc1)C(F)(F)F (stereo unspecified)
-42.7%,Cc1ccc2nc(NS(=O)(=O)c3ccc(Cl)cc3)c(Nc3ccc(C(=O)O)cc3)nc2c1
-3.7%,CCCn1c2ccccc2c2cnn(CC(=O)NCCc3ccc(C)cc3)c(=O)c21
-1.2%,COc1cccc(CNCCCSc2nnnn2C)c1OC
9.6%,CCC(CC)C(=O)Nc1nnc(SCc2cc(=O)n3cccc(C)c3n2)s1
-40.3%,O=C(NCc1cccc(Cl)c1)NCc1noc2ccccc12
18.7%,Cc1cccc(C(=O)Oc2c(Sc3ccccc3)c(C)nn2C(C)(C)C)c1
5.3%,Cc1cccc(C(=O)N2CCc3cc(CNS(=O)(=O)c4ccc(F)c(Cl)c4)ccc32)c1
-7.8%,CCOc1ccc(NC(=O)C(CC)n2nc(-c3ccc(C)c(C)c3)ccc2=O)cc1 (stereo unspecified)
-28.4%,COc1ccccc1CNc1ccc(-c2nc(-c3cccc(C)c3)no2)cc1[N+](=O)[O-]
24.3%,Cc1ccc(-c2nc(CS(=O)CC(=O)O)c(C)o2)cc1 (stereo unspecified)
-2.3%,CCC(Sc1nnc2c3ccccc3n(CC)c2n1)C(=O)Nc1nnc(C(C)C)s1 (stereo unspecified)
-35.2%,COc1ccc(C(=O)Nc2ccc3oc(-c4ccc5ccccc5c4)nc3c2)cc1Br

# Continued; the last 6 above are carried over.
miR-21 reporter,smiles
5.3%,Cc1cccc(C(=O)N2CCc3cc(CNS(=O)(=O)c4ccc(F)c(Cl)c4)ccc32)c1
-7.8%,CCOc1ccc(NC(=O)C(CC)n2nc(-c3ccc(C)c(C)c3)ccc2=O)cc1 (stereo unspecified)
-28.4%,COc1ccccc1CNc1ccc(-c2nc(-c3cccc(C)c3)no2)cc1[N+](=O)[O-]
24.3%,Cc1ccc(-c2nc(CS(=O)CC(=O)O)c(C)o2)cc1 (stereo unspecified)
-2.3%,CCC(Sc1nnc2c3ccccc3n(CC)c2n1)C(=O)Nc1nnc(C(C)C)s1 (stereo unspecified)
-35.2%,COc1ccc(C(=O)Nc2ccc3oc(-c4ccc5ccccc5c4)nc3c2)cc1Br
-13.4%,CN(C(=O)c1cc2c(s1)-c1ccc(Cl)cc1SC2)c1cccc(C(F)(F)F)c1
?,Cc1ccc(C)n1-c1nnc(N2CCCC(C(=O)NCc3ccc(Cl)cc3)C2)s1 (stereo unspecified)
-2.4%,Cn1c(SCC(=O)N2CCOCC2)ncc(C(=O)Nc2ccc(F)cc2)c1=O
-3.1%,CC(C)c1cnc2c(c1SCC(=O)NCc1ccccc1Cl)c(=O)n(C)c(=O)n2C
-17.3%,CCOc1ccc(CCNC(=O)c2cc3cc4cc(OC)ccc4nc3s2)cc1OCC
9.5%,COc1cccc(C2=NS(=O)(=O)N(C)C(C(=O)Nc3cccc(O)c3)=C2)c1
-1.4%,COc1ccc(NC(=O)c2cc3nc(-c4ccc(C)c(C)c4)cc(C(F)(F)F)n3n2)cc1
13.7%,Cc1ccc(-c2cn3c(n2)sc2cc(C(=O)NCc4cccs4)ccc23)cc1
-0.8%,COc1ccc(NC(=O)NC2COc3ccccc3C2)c(OC)c1 (stereo unspecified)
-1.0%,Cc1cc(NC(=O)N(C)CCc2c(C)nn(C)c2C)ccc1Br
7.4%,Cc1cccc(CNC(=O)c2sc3ncnc(N(C)C4CCCCC4)c3c2C)c1
-12.7%,CCN(CC)S(=O)(=O)c1ccc2c(c1)nc(CN(C)C(=O)Nc1ccc(Cl)cc1)n2C
23.7%,CCc1ccc(Nc2sc(C(=O)c3ccc(F)cc3)c(N)c2S(=O)(=O)c2ccccc2)cc1
9.0%,O=C(Nc1ccc2nc(SCCOc3ccccc3Cl)sc2c1)c1ccco1
-3.9%,Cc1ccc(OCC(=O)NCC(=O)OCc2cc(=O)n3nc(C(C)C)sc3n2)cc1
10.9%,Cc1ccc(-c2nnc(Nc3ccc(C(=O)N(C)C)cc3)c3ccccc23)cc1S(=O)(=O)N(C)C
12.3%,Cc1c(CC(=O)NCCc2ccccc2F)c(=O)oc2c(C)c3occ(C(C)(C)C)c3cc12
0.4%,CCOC(=O)c1ccc(NC(=O)CCc2c(C)n(CC)c3cc(-c4ccccc4OC)nn3c2=O)cc1
2.7%,COc1ccc(CNC(=O)C(Cc2ccccc2)NS(=O)(=O)c2ccc3c(c2)CCN3C(C)=O)cc1 (stereo unspecified)
19.8%,Cc1nc(-c2cccc(S(=O)(=O)N3CCC(C(=O)NCc4ccccc4Cl)CC3)c2)no1
-12.5%,COc1ccc(C(=O)Nc2nc3c(s2)CCCC3)cc1Cl
-13.5%,Cc1cc2c(cc1C)NC(CC(=O)Nc1ccccc1SC(F)(F)F)C(=O)N2 (stereo unspecified)
-3.3%,COc1cc(/C=C(\C#N)c2nc3ccccc3[nH]2)cc(Cl)c1OCc1ccccc1Cl
1.1%,CCc1cccc(NC(=O)c2cc3c(s2)-c2ccccc2OC3)c1
?,COc1ccc(Nc2cc(C(=O)NCCCN3CCN(c4ccccc4F)CC3)c3ccccc3n2)c(OC)c1
-0.1%,Cc1ccc(Cn2c(=O)n(CC3CCC(C(=O)N4CCOCC4)CC3)c(=O)c3sccc32)cc1 (stereo unspecified)
23.2%,O=C(Nc1ccc(-c2nc3cc(NC(=O)c4ccccc4Cl)ccc3o2)cc1)c1ccccc1Cl
-2.8%,Cn1cc(-c2cc3n(n2)CCC(=O)N3CCCC(=O)Nc2ccc(F)cc2F)c2ccccc21
-0.4%,Cc1c(Cl)cccc1-c1ccc(C(=O)Nc2ccc3oc(-c4cccnc4)nc3c2)o1
5.1%,CCOc1ccc(NC(=O)c2cc(S(=O)(=O)N3CCN(c4ccccc4F)CC3)ccc2F)cc1

# Arranged by SMILES length (high to low): three of the compounds above.
miR-21 reporter,smiles
10.9%,Cc1ccc(-c2nnc(Nc3ccc(C(=O)N(C)C)cc3)c3ccccc23)cc1S(=O)(=O)N(C)C
-13.4%,CN(C(=O)c1cc2c(s1)-c1ccc(Cl)cc1SC2)c1cccc(C(F)(F)F)c1
-17.3%,CCOc1ccc(CCNC(=O)c2cc3cc4cc(OC)ccc4nc3s2)cc1OCC

# Later entries
miR-21 reporter,smiles
-0.9%,CCC1CN(C(=O)N2CCC(C(=O)NCCC3=CCCCC3)CC2)c2ccccc2O1 (stereo unspecified)
1.3%,COc1ccc(C(=O)N2CCC(C(=O)Nc3ccc(Cl)cc3)CC2)cc1
10.8%,COc1ccc(S(=O)(=O)N2Cc3ccccc3CC2C(=O)Nc2cc(Cl)ccc2Cl)cc1 (stereo unspecified)
-6.5%,Cc1ccc(N2C(=O)[C@@H]3CSC(c4ccc(Cl)cc4)N3C2=O)cc1 (stereo partly specified)
-34.5%,CCc1ccc2nc(N3CCN(C(=O)c4ccco4)CC3)sc2c1
-26.4%,Fc1ccc(Nc2c(-c3c[nH]c4ccccc34)nc3ccccn23)cc1
-6.3%,CCOC(=O)c1cnc2c(ccc3ccccc32)c1Nc1cccc(OC)c1
-2.7%,COc1ccc(C(=O)Nc2ccc(-c3nc4ncccc4o3)cc2C)cc1Br
-1.3%,COc1ccc(NC2CCCN(C(=O)CCCn3cncn3)C2)cc1 (stereo unspecified)
9.4%,O=C(CSc1nc(Nc2ccccc2)c2ccccc2n1)c1ccc(Cl)cc1
-19.6%,COc1cc(OC)cc(-c2nc3nc(C)c(CCC(=O)Nc4ccc(C)cc4)c(C)n3n2)c1
18.6%,Cc1ccc(-c2noc(-c3ccc(N4CCN(C)CC4)c([N+](=O)[O-])c3)n2)cc1
-29.5%,COc1cccc(C(=O)Nc2ccc3oc(-c4ccc5ccccc5c4)nc3c2)c1
0.4%,C=C(C)Cn1c(SCC(=O)c2ccc(Br)cc2)nc2sc3c(c2c1=O)CCCC3
-12.1%,COc1ccc(-n2nc3cc(C)c(NC(=O)c4ccc(-c5ccc(Cl)cc5)o4)cc3n2)cc1
8.0%,Cc1cccc(OCC(=O)Nc2ccc3c(c2)nc(CCNC(=O)c2ccco2)n3C)c1
-2.3%,CCOc1cc(C(=O)NCc2nc(-c3cccc(C)c3)no2)cc(OCC)c1OCC
-8.8%,COc1ccc(CNC(=O)c2cc3c(=O)[nH]c4ccccc4c3s2)cc1
-4.4%,CSc1cccc(NC(=O)CC(c2cccs2)N2Cc3ccccc3C2=O)c1 (stereo unspecified)
6.5%,O=C(NCCS(=O)(=O)N1CCN(c2ccc(F)cc2)CC1)c1ccccc1Br
2.2%,CC(=O)c1cccc(NC(=O)CSc2nc3c(c(=O)[nH]2)CCC3)c1
-9.3%,COc1ccccc1-n1ncc2c(=O)[nH]c(SCC(=O)Nc3cccc(F)c3)nc21
-2.5%,O=C(C1CCN(S(=O)(=O)c2cccs2)CC1)N1CCN(c2ccccc2F)CC1
?,CCn1c2ccccc2c2nnc(N3CCN(c4cccc(Cl)c4)CC3)nc21
0.8%,Clc1ccc(CCNC(c2ccc(Cl)cc2)c2nnc(-c3ccccc3)o2)cc1 (stereo unspecified)
?,CC(C)Cc1ccc(S(=O)(=O)N2CCC(c3ccncc3)CC2)cc1
-15.8%,O=C(COCc1cc(-c2ccco2)on1)Nc1cccc(O)c1
5.0%,Cc1ccc(C)n1-c1nnc(N2CCC(C(=O)NCc3ccc(F)cc3)CC2)s1
-11.0%,Cc1ccc(NS(=O)(=O)c2ccc3c(c2)C(C(C)C)C(=O)N3)cc1C (stereo unspecified)
1.4%,COc1cccc(C2c3c(-c4ccccc4O)n[nH]c3C(=O)N2Cc2cccnc2)c1 (stereo unspecified)

# A different layout for part of the listing above:
Molecule | miR-21 reporter
CSc1cccc(NC(=O)CC(c2cccs2)N2Cc3ccccc3C2=O)c1 (stereo unspecified) | -4.4%
O=C(C1CCN(S(=O)(=O)c2cccs2)CC1)N1CCN(c2ccccc2F)CC1 | -2.5%
Clc1ccc(CCNC(c2ccc(Cl)cc2)c2nnc(-c3ccccc3)o2)cc1 (stereo unspecified) | 0.8%

# More compounds follow.
miR-21 reporter,smiles
0.0%,CCC(=O)Nc1ccccc1-c1nc2ccccc2n(CC(=O)Nc2ccccc2OC)c1=O
8.6%,COc1cc(NS(=O)(=O)c2ccc3c(c2)OCC(C(=O)N2CCCC2)O3)cc(OC)c1 (stereo unspecified)
-4.5%,Cc1ccc(-n2nc3c(N4CCC(C(=O)NC5CCCCC5)CC4)nnc(C)c3c2C)cc1
22.1%,Cc1ccc2nc(CN3CCN(S(=O)(=O)c4ccc(C(C)C)cc4)CC3)oc2c1

# Individual results from the list:
# Cc1ccc2nc(CN3CCN(S(=O)(=O)c4ccc(C(C)C)cc4)CC3)oc2c1 | miR-21 reporter: 22.1%
# CCC(=O)Nc1ccccc1-c1nc2ccccc2n(CC(=O)Nc2ccccc2OC)c1=O | miR-21 reporter: 0.0%
# COc1cc(NS(=O)(=O)c2ccc3c(c2)OCC(C(=O)N2CCCC2)O3)cc(OC)c1 (stereo unspecified) | miR-21 reporter: 8.6%
